Assay outcomes (PubChem)
Beta cell apopt: inhibitors of cytokine-induced beta cell apoptosis, primary screen, luminescence | INS-1E cytokine-induced death, ATP luminescence, 48 h; percent of positive-control rescue, neutral wells zero | protection from apoptosis, % (test concentration not listed) | 0.8% of 300,000 active | AID 435005, 2010;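 active = all replicates at 75% or more, or half of them and the mean; inconclusive = half reach 75% but not the mean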;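 also: 0% = cytokine-treated negative control wells and 100% = positive control rescue; higher means more ATP so stronger rescue from cytokine killing; wells of about 40 µL received 100 nL stock; the first replicate is given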
UCH37 inh: inhibitors of human UCH37 deubiquitinase, primary screen, biochemical, Ub-AMC cleavage, fluorescence | Ubiquitin carboxyl-terminal hydrolase isozyme L5 (Homo sapiens), Q9Y5K5 | purified proteasome/UCH37 | inhibition, % (test concentration not listed) | 0.33% of 330,000 active;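 active = mean of two replicates above 20%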;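 also: 0% = compound-free wells with enzyme and 100% = wells lacking proteasome; stock transfer was 100 nL into about 20 µL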
Target sequence (Q9Y5K5 whole entry, looked up): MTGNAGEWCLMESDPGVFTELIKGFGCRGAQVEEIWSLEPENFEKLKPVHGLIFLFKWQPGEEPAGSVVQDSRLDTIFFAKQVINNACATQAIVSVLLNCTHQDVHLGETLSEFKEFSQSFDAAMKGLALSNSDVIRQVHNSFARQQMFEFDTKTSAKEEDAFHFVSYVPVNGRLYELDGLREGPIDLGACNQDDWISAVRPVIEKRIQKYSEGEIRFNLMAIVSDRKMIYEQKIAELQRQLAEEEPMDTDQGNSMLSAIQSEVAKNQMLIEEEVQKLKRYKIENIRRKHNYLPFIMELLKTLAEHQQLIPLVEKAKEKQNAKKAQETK
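Material: Human UCH37 enzyme supplied as purified proteasome complex | Schedule: 30 min compound-proteasome preincubation then 25 min substrate reaction, room temperature | Detection: AMC fluorescence from Ub-AMC cleavage, excitation 355 nm, emission 460 nm | Benchmarks: Wells without proteasome as full block, compound-free enzyme plus substrate as uninhibited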
FGF22 binding: binders of human FGF22 protein, primary screen, FGF22 synaptogenesis inhibitor project, biophysical, thermal shift, single point. Fibroblast growth factor 22 (Homo sapiens), Q9HCT0. recombinant FGF22 thermal shift, SYPRO orange fluorescence; percent of sucrose octasulfate shift, DMSO zero. calls only at 9.99 µM. 1.5% of 340,000 active. AID 651658, 2012;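 active = melting point raised past a set limit in the mean and every replicate; inconclusive = no clear call; three in four hits are not shown here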
Target sequence (Q9HCT0 whole entry, looked up): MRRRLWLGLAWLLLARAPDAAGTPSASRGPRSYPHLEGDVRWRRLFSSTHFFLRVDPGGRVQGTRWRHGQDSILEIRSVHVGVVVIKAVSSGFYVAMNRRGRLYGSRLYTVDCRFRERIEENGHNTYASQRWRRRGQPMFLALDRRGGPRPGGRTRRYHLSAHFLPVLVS
Ecoli rRNA inh: reduced GFP signal of wild-type E. coli, primary screen, bacterial rRNA inhibitor project, GFP/RFP fluorescence, OD600, single point; E. coli WT GFP vs humanized-ribosome RFP mutants, 24 h; stronger effect = lower value; DMSO median 0, no signal -100; GFP signal change (wild-type ribosome), % (concentration not given with the values); 1.6% of 350,000 active;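 active = significant combined selectivity score with lowered wild-type GFP, culture density cut under 30%, mutant RFP and density less affected; inactive = any of these conditions unmet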; also: one replicate is shown; some compounds called inactive have numbers as strong as hits
A1 inh: caspase 3/7 activation in MEF A1-2A-BIM cells, primary screen, A1 inhibitor project, cell-based, luminescence, HTS. Caspase-Glo 3/7 luminescence, 3 h; percent of clofoctol response, vehicle zero. caspase activation, % (no concentration beside the values). 0.066% of 330,000 active. AID 2462, 2010;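 active = over half of replicate activation scores above 10%, or exactly half above 10 with the replicate mean above 10; inconclusive = replicate mean below 10 yet half the replicates above 10; inactive = over half of replicates below 10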;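 also: wells of about 30 µL received 50 nL stock; many hits fall short of the cut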
T cruzi repl: inhibitors of intracellular T. cruzi growth, primary screen, luminescence, NIH3T3 host cells. T. cruzi beta-gal in NIH3T3, 90 h. inhibition, % (test concentration not listed). 1.4% of 300,000 active. AID 1885, 2009;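 active = mean inhibition across valid replicates above about 55%, limit read from the data; inconclusive = mean below that limit but half or more replicates reach it; inactive = mean below it, under half of replicates reach it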;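 also: signal also drops with host cell toxicity which is not excluded here; 0% = plate median of DMSO wells and 100% = zero luminescence signal; higher percent means less beta-gal luminescence so fewer parasites; stock transfer was 50 nL into about 50 µL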
E coli growth: E. coli growth inhibition, primary screen, OD600. Escherichia coli growth, 23 h; stronger effect = lower value. OD600 absorbance (no concentration beside the values). 0.21% of 330,000 active;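 active = OD600 absorbance below the run mean of sample wells minus 3.6 SD, in any replicate, cut at about 0.56 in these data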;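 also: stock transfer was 300 nL into about 60 µL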
AF4-AF9 inh: inhibitors of AF4 peptide binding to AF9, primary screen, biochemical, AlphaScreen, biotin-AF4 peptide, FLAG-AF9, single point. Protein AF-9 (Homo sapiens), P42568. inhibition, % at 10 µM. 0.47% of 350,000 active;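 active = every replicate reaching a set inhibition limit, whatever the replicate mean, cut at about 25% in these data; inconclusive = mean inhibition reaches that limit but some replicates miss it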;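 also: 0% = plate neutral control median and 100% = total signal loss; the record names both 10 and 1 µM as test concentration; the first replicate is given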
Target sequence (P42568 whole entry, looked up): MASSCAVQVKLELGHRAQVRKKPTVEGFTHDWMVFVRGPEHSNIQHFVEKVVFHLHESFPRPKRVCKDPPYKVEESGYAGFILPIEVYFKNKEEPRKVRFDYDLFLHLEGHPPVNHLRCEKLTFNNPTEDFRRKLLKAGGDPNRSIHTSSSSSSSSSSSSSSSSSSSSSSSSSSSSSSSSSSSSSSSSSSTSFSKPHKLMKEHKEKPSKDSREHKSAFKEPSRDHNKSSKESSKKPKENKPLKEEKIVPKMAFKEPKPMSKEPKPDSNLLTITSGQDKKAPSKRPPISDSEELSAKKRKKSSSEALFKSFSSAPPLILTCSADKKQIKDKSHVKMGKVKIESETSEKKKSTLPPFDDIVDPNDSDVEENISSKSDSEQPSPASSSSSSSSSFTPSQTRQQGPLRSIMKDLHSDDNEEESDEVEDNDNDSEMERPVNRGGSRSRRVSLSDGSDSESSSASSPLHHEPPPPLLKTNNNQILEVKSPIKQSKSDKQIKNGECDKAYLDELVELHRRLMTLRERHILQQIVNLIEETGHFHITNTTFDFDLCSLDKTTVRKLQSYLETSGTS
Ecoli rRNA inh OD600: also measured in Ecoli rRNA inh; calls as there; OD600 change, %; measured here: OD600 growth;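 optical density of the mix in the first replicate; 0 = DMSO median and -100 = no signal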
Ecoli rRNA inh RFP: recorded beside Ecoli rRNA inh, whose call it bears; RFP signal change, %; measured here: RFP humanized mutant strains;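 first replicate; 0 = DMSO median and -100 = no signal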
Starred values were filed as active, the others as inactive; i = inactive; ? = inconclusive; · = no result given. Only part of the results is shown; the hit share may differ from the screen's.

SMILES | Beta cell apopt | UCH37 inh | FGF22 binding | Ecoli rRNA inh | Ecoli rRNA inh OD600 | Ecoli rRNA inh RFP | A1 inh | T cruzi repl | E coli growth | AF4-AF9 inh
CCc1ccc(C(=O)/C=C/NCc2ccc(F)cc2)cc1 | -3 | -2.1 | i | -18 | -35 | 17 | -2.4 | -7 | 0.73 | -0.4
CC1Cc2nc(SCC(=O)NCc3ccco3)n(-c3ccccc3)c(=O)c2S1 (centres undefined) | -2 | 5.8 | i | 5 | 5 | 5.8 | 0.6 | 4 | 0.8 | 5.8
Cc1ccc(S(=O)(=O)Nc2cccnc2)c(C)c1C | -20 | 1.1 | i | 13 | 12 | 1.2 | 0.1 | -9 | 0.68 | -1.3
CC(C(=O)NCC1CCCO1)N(C(=O)c1snc(C(N)=O)c1N)c1cccc(F)c1 (centres undefined) | 1 | -142 | · | · | · | · | -0.5 | -3 | 0.7 | ·
O=C(NCC(c1ccc(F)cc1)N1CCOCC1)c1ccccc1F (centres undefined) | -4 | -0.2 | i | 13 | -2 | -3.0 | 0.3 | -9 | 0.67 | 0.5
CCn1nc(C)c(CN2CCc3c([nH]c4ccccc34)C2c2ccc(F)c(OC)c2)c1C (centres undefined) | -2 | -5.0 | i | -15 | -25 | -0.3 | -0.3 | 25 | 0.67 | 15
CCOc1ccc(NS(=O)(=O)c2ccc(C)c(C(=O)NCCCn3ccnc3)c2)cc1 | -1 | 0.5 | i | 4 | -2 | 2.0 | 1.2 | 3 | 0.71 | -2.3
CCCCNc1ccc(C(CC(N)=O)NC(=O)Cc2cccc3ccccc23)cc1[N+](=O)[O-] (centres undefined) | -2 | 2.6 | i | 12 | 8 | 0.8 | -0.4 | -7 | 0.68 | ·
COc1ccc(CN(C)C(=O)CCCNC(=O)c2ccc(Cl)cc2)cc1 | -5 | 4.1 | i | -5 | 0 | 1.7 | -0.8 | -3 | 0.66 | -0.6
Cc1oc(-c2ccc(Cl)cc2)nc1CSCC(=O)NC1CCN(Cc2ccccc2)CC1 | 5 | 5.2 | i | -3 | -7 | 0.6 | -0.1 | 25 | 0.65 | 12

3 of the entries above in order of their number in Ecoli rRNA inh RFP, rising.
structure | Ecoli rRNA inh RFP
CCn1nc(C)c(CN2CCc3c([nH]c4ccccc34)C2c2ccc(F)c(OC)c2)c1C (centres undefined) | -0.3
Cc1oc(-c2ccc(Cl)cc2)nc1CSCC(=O)NC1CCN(Cc2ccccc2)CC1 | 0.6
Cc1ccc(S(=O)(=O)Nc2cccnc2)c(C)c1C | 1.2

(more compounds)
SMILES | Beta cell apopt | UCH37 inh | FGF22 binding | Ecoli rRNA inh | Ecoli rRNA inh OD600 | Ecoli rRNA inh RFP | A1 inh | T cruzi repl | E coli growth | AF4-AF9 inh
CC(=O)Oc1cc2c3c(c1)/C(=C1/SC(=S)NC1=O)C(=O)N3C(C)(C)C=C2C | 12 | 2.6 | i | -19 | -12 | -6.4 | 0.5 | 1 | 0.66 | 30*
O=C(COc1ccc(Cl)cc1)Nc1cc(S(=O)(=O)N2CCCCC2)ccc1N1CCCCC1 | 4 | -1.4 | · | · | · | · | 0.8 | 12 | 0.74 | ·
O=C(CN(Cc1ccc(F)cc1)C(=O)c1csnn1)NCc1ccc2c(c1)OCO2 | 1 | 2.4 | i | 5 | 3 | 0.8 | 0.3 | -3 | 0.64 | -5.9
Cn1c(=O)c2c(nc3n2CCCN3CCc2ccccc2)n(C)c1=O | 2 | 1.5 | i | -1 | 15 | -1.9 | 0.7 | -5 | 0.61 | -1.1
O=C(N/C(=C/c1cccs1)C(=O)N1CCOCC1)c1ccco1 | 0 | 6.2 | · | · | · | · | -1.1 | -9 | 0.71 | ·
COc1ccccc1NC(=O)COc1ccc(C(=O)OCC(=O)N2CCCC2=O)cc1OC | 1 | 4.0 | · | · | · | · | -0.3 | -2 | 0.68 | ·
c1c2c(cc3sc(N4CCCCC4)nc13)OCO2 | 13 | 0.8 | · | · | · | · | -8.4 | -40 | 0.67 | ·
COc1ccc2[nH]c(C(=O)N3CCN(C)CC3)c(C)c2c1 | -6 | -4.6 | i | 9 | 8 | 1.9 | -0.7 | -14 | 0.68 | -2.6
COc1ccc(CCNC(=O)c2cc3c(=O)n4ccccc4nc3n(C3CCCCC3)c2=N)cc1 | 20 | · | i | -30 | -53 | 23 | -0.4 | 60* | · | 5.2
COC(=O)c1cc(S(=O)(=O)NCCN2CCN(c3ccccc3F)CC2)c[nH]1 | 0 | 3.1 | i | 7 | 5 | 2.0 | 0.9 | 3 | 0.69 | 0.6
Cc1csc(SCC(=O)Nc2sccc2C#N)n1 | -11 | 3.6 | i | -4 | -5 | -3.5 | -7.8 | -8 | 0.71 | -1.0
O=C1c2ccccc2C(Nc2ccc(F)c(Cl)c2)N1c1ccccn1 (centres undefined) | 2 | 2.2 | i | 2 | -3 | -2.6 | 0.0 | 40 | 0.69 | -12
Cc1cccc(CS(=O)(=O)Cc2ccc(C(=O)NCc3cccs3)o2)c1 | 3 | 3.9 | i | 4 | 1 | -6.0 | -0.3 | -17 | 0.72 | 2.9
O=C(/C=C/c1ccc([N+](=O)[O-])cc1)c1ccco1 | · | 3.0 | i | 3 | 1 | -1.2 | -0.1 | -4 | 0.7 | -5.8
O=C(CN1CCN(Cc2ccccc2)CC1)c1c[nH]c2ccccc12 | -7 | 1.1 | · | · | · | · | 1.0 | 39 | 0.67 | ·
O=C(CSc1nnc(-c2ccccc2Cl)o1)Nc1ccc2c(c1)OCCO2 | -5 | 2.9 | · | · | · | · | 1.2 | -8 | 0.73 | ·
CCCC(C)NC(=O)C1CCN(S(=O)(=O)c2ccccc2)CC1 (centres undefined) | 1 | 3.4 | i | 11 | -3 | 2.4 | 0.3 | 1 | 0.71 | -29
CCOc1cc(N2CCOCC2)c(OCC)cc1NC(=O)Cc1ccccc1 | 1 | 0.2 | i | -1 | 5 | 0.7 | 1.8 | 15 | 0.7 | ·
Cc1ccc(C)c(S(=O)(=O)NCc2ccc(C(=O)N3CCOCC3)cc2)c1 | -5 | 3.5 | i | 2 | 6 | -1.8 | -0.7 | 3 | 0.66 | 2.0
C=CCn1c(CSc2nc3ccccc3s2)nnc1SCC(=O)NCc1ccccc1 | -5 | 4.8 | · | · | · | · | 1.2 | 13 | 0.75 | ·
CN(CCC#N)C(=O)COC(=O)c1ccc2c(c1)C(=O)N(C1CCCCC1)C2=O | -2 | 4.5 | i | 1 | 1 | 2.7 | 1.9 | -9 | 0.7 | -0.9
COc1ccc(CNc2ccc3cn[nH]c3c2)c(OC)c1OC | -3 | 22* | · | · | · | · | 0.6 | -15 | 0.72 | ·
CC(=O)NCc1ccc(S(=O)(=O)NC2CCN(Cc3ccccc3)CC2)cc1 | 2 | 2.5 | i | 17 | -3 | 2.9 | 1.2 | -2 | 0.7 | -16
CC1O[C@@H](O[C@H](C)CC[C@@H](C)O)C(O)C[C@H]1O (some centres undefined) | -15 | 2.8 | i | 7 | 7 | 12 | 1.5 | -15 | · | -3.9
O=C(O)Cc1coc2ccc3ccccc3c12 | 0 | 2.2 | i | -5 | -5 | -1.9 | -0.7 | -12 | 0.7 | -3.0
CCCCN(C(=O)c1cccc(-n2cccc2)c1)c1c(N)n(CCC)c(=O)[nH]c1=O | · | -1.3 | i | 13 | 20 | -0.7 | 0.9 | -15 | 0.67 | 2.7
CC(C)C1Nc2c(C(=O)O)cccc2C(Nc2ccccc2C(=O)O)C1(C)C (centres undefined) | -3 | -137 | · | 1 | -5 | -4.5 | 0.6 | 5 | 0.65 | -2.3
CCCn1c(=O)[nH]c(=O)c2[nH]cnc21 | 5 | 1.8 | i | · | · | · | -0.2 | -11 | 0.69 | -3.1
CCC(CC)NC(=O)c1n[nH]c(=O)c2ccccc12 | 0 | -0.9 | · | · | · | · | 0.0 | 7 | 0.72 | ·
Cc1cc(Cl)ccc1OCCCC(=O)NC1CCN(C)CC1 | 1 | 0.4 | i | 6 | -2 | -7.3 | 0.9 | 71* | 0.71 | -0.6
O=S1(=O)NC(=NCc2ccccc2)c2ccccc21 | 10 | 0.8 | i | -2 | -4 | -9.0 | -0.1 | -12 | 0.73 | ?
CCCCCCOC(=O)C1=C(C)NC(=O)NC1c1ccc2c(c1)OCO2 (centres undefined) | 3 | 4.5 | i | -4 | -8 | 1.8 | -0.1 | -6 | 0.7 | 0.7
CC(=O)N1CCN(C(=O)COC(=O)/C=C/c2ccccc2[N+](=O)[O-])CC1 | 0 | 5.9 | i | 18 | 6 | 5.5 | 0.0 | · | 0.69 | 0.1
COc1cccc(-c2ccc(C#N)c(SCC(=O)NCCc3ccc(Cl)cc3)n2)c1 | -2 | -1.5 | · | · | · | · | 0.3 | 32 | 0.73 | ·
O=C(CCSc1ccc(Cl)cc1)NC1CCCC1 | -3 | 1.4 | i | -12 | -15 | -6.4 | 0.7 | -7 | 0.7 | -8.4
COc1ccc(Br)cc1S(=O)(=O)NCc1ccccc1 | -9 | 1.8 | · | · | · | · | 0.6 | 1 | 0.66 | ·
CCn1c(C)nc2cc(C(=O)N/N=C/c3ccccc3)ccc21 | 5 | · | i | -1 | 5 | -1.8 | -0.4 | -1 | · | -0.8
CC1CCCN(C(=O)CCS(=O)(=O)c2ccc3c(c2)n(C)c(=O)c(=O)n3C)C1 (centres undefined) | · | -0.6 | i | 12 | 18 | 3.5 | · | -1 | 0.73 | -1.9
CCOC(=O)C1(CCCc2ccccc2)CCN(C2CCSCC2)CC1 | · | 0.1 | i | -9 | -19 | -1.6 | · | 10 | 0.67 | 5.5
CC(C)C(c1nnnn1Cc1ccco1)N1CCN(C2CCCC2)CC1 (centres undefined) | -3 | 2.1 | · | · | · | · | 1.6 | -1 | 0.74 | ·
CCCCN(CCCC)C(=O)c1ccccc1NC(=O)CN1C(=O)c2ccccc2C1=O | -6 | 3.1 | · | · | · | · | 0.6 | 4 | 0.71 | ·
Cn1c(=O)c2c(c3ccccc31)OC(=O)CC2c1cccnc1 (centres undefined) | · | 3.9 | i | 19 | 22 | 7.5 | · | · | 0.69 | -1.6
O=S(=O)(c1cnc(Cl)c(Cl)c1)N1CCCc2ccccc21 | 2 | 1.6 | i | -25* | -12* | 0.7* | -0.3 | -13 | 0.7 | -1.8
